Compound activity deposited in PubChem BioAssay by Broad Institute.
A1 apoptosis 2 = A1 inhibition read as caspase activation; MEF A1-2A-BIM cells, caspase-Glo luminescence, 3 h; percent of clofoctol response, DMSO zero; caspase activation, % (no concentration beside the values); 24,000 tested, under 10 active; AID 2465; in the data active = caspase activation above about 5.9%;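 note: wells of about 30 µL received 50 nL stock; the first replicate is given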
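System: mouse embryonic fibroblasts co-expressing A1 and BIM (A1-2A-BIM), primed for A1 dependence; amount: 2500 cells/well; doses: 50 nL pinned compound; schedule: cells settled overnight, compound exposure 3 h at 37 °C, 5% CO2; detection: Caspase-Glo 3/7 luminescence, 1 h at room temperature; read-out: Caspase-3/7 activation, seen as rise in luminescence signal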
Active calls of the source: *. An excerpt; the hit share may differ from the screen's.

SMILES	A1 apoptosis 2
COc1ccc(NC(=O)Nc2ccc3c(c2)C(=O)N([C@@H](C)CO)C[C@H](C)[C@@H](CN(C)Cc2ccncc2)O3)cc1	-1.0
CC(C)NC(=O)N(C)C[C@H]1Oc2c(NS(=O)(=O)c3ccc(F)cc3)cccc2C(=O)N([C@H](C)CO)C[C@H]1C	0.5
COc1ccc(NC(=O)Nc2ccc3c(c2)C(=O)N([C@H](C)CO)C[C@@H](C)[C@@H](CN(C)CC2CCCCC2)OCCCC[C@H](C)O3)cc1	0.0
Cc1noc(C)c1S(=O)(=O)Nc1ccc2c(c1)C(=O)N([C@@H](C)CO)C[C@H](C)[C@@H](CN(C)C(=O)NC(C)C)OCCCC[C@H](C)O2	-0.3
C[C@@H]1CN([C@H](C)CO)C(=O)c2cc(NS(=O)(=O)c3ccc(F)cc3)ccc2O[C@@H](C)CCCCO[C@@H]1CN(C)C(=O)c1ccncc1	-2.2
C[C@@H]1CCCCO[C@@H](CN(C)C(=O)Nc2ccccc2)[C@H](C)CN([C@H](C)CO)C(=O)c2cc(NC(=O)c3ccccc3)ccc2O1	-0.6
C[C@@H]1CCCCO[C@H](CN(C)C(=O)Nc2ccc(C(F)(F)F)cc2)[C@H](C)CN([C@@H](C)CO)C(=O)c2cc(NS(C)(=O)=O)ccc2O1	0.2
CNC[C@H]1OCCCC[C@H](C)Oc2ccc(N(C)C)cc2C(=O)N([C@H](C)CO)C[C@H]1C	0.0
CC(C)NC(=O)Nc1ccc2c(c1)C(=O)N([C@H](C)CO)C[C@H](C)[C@H](CN(C)S(=O)(=O)c1cn(C)cn1)OCCCC[C@H](C)O2	-0.3
Cc1noc(C)c1NC(=O)Nc1ccc2c(c1)C(=O)N([C@@H](C)CO)C[C@@H](C)[C@@H](CN(C)C(=O)Nc1cccc3ccccc13)OCCCC[C@@H](C)O2	0.1
C#CCNC(=O)C1=C[C@H](C(C)(C)C)C[C@H](OCCCCO)O1	0.2
C[C@H](CO)N1C[C@H](C)[C@H](CN(C)Cc2ccc(Cl)c(Cl)c2)Oc2c(NS(=O)(=O)c3cccs3)cccc2C1=O	0.4
C=CCN(Cc1ccccc1)C(=O)[C@@H]1N(C(C)(C)C)C(=O)[C@H]2[C@H](C(=O)O)[C@@H]3C=C[C@]12O3	-0.2
C[C@H]1CN([C@@H](C)CO)C(=O)c2cc(NC(=O)Cc3cn(C)c4ccccc34)ccc2O[C@H]1CN(C)S(C)(=O)=O	1.1
C[C@@H]1CN([C@@H](C)CO)C(=O)c2cc(NC(=O)c3ccccc3)ccc2O[C@@H](C)CCCCO[C@H]1CN(C)C(=O)c1ccccc1	-0.7
COc1ccc(NC(=O)Nc2ccc3c(c2)C(=O)N([C@H](C)CO)C[C@H](C)[C@H](CN(C)Cc2ccc(Cl)c(Cl)c2)O3)cc1	0.9
CC(C)NC(=O)Nc1ccc2c(c1)C(=O)N([C@@H](C)CO)C[C@H](C)[C@@H](CN(C)Cc1ccncc1)OCCCC[C@@H](C)O2	-0.8
COc1ccc(CN(C)C[C@H]2Oc3ccc(NC(=O)Cc4cn(C)c5ccccc45)cc3C(=O)N([C@H](C)CO)C[C@H]2C)cc1	-0.6
C[C@@H]1CCCCO[C@H](CN(C)Cc2ccc(C(F)(F)F)cc2)[C@@H](C)CN([C@@H](C)CO)C(=O)c2cc(NS(=O)(=O)c3cccs3)ccc2O1	1.1
CNC[C@@H]1Oc2ccc(NC(=O)Nc3c(C)noc3C)cc2CC(=O)N([C@@H](C)CO)C[C@H]1C	0.1
COc1ccc(NC(=O)N(C)C[C@H]2Oc3ccc(NC(=O)Nc4ccccc4)cc3CC(=O)N([C@@H](C)CO)C[C@H]2C)cc1	-0.9
C[C@@H]1CN([C@H](C)CO)C(=O)c2cccc(NC(=O)C3CCCCC3)c2O[C@@H]1CN(C)Cc1ccc(C(F)(F)F)cc1	1.4
C[C@H]1CN([C@@H](C)CO)C(=O)Cc2cc(N(C)C)ccc2O[C@@H]1CN(C)Cc1ccccc1	0.5
COc1ccc(NC(=O)N(C)C[C@H]2Oc3ccc(NC(=O)C4CC4)cc3C(=O)N([C@H](C)CO)C[C@@H]2C)cc1	-0.8
Cc1noc(C)c1NC(=O)Nc1ccc2c(c1)C(=O)N([C@@H](C)CO)C[C@@H](C)[C@@H](CN(C)C(=O)NC(C)C)OCCCC[C@@H](C)O2	0.1
C[C@H](CO)N1C[C@H](C)[C@H](CN(C)C(=O)Nc2ccc(F)cc2)Oc2ncc(Br)cc2C1=O	-0.3
C[C@@H]1CN([C@H](C)CO)C(=O)c2cccc(NC(=O)c3ccncc3)c2O[C@@H]1CN(C)CC1CC1	0.2
O=C(NO)c1ccc(C(=O)N/N=C/c2cc(Cl)cc(Cl)c2O)cc1	-0.9
CCCN(C)C[C@H]1OCCCC[C@H](C)Oc2ccc(NC(=O)Nc3ccc(C(F)(F)F)cc3)cc2C(=O)N([C@@H](C)CO)C[C@H]1C	0.5
Cc1noc(C)c1S(=O)(=O)N(C)C[C@H]1OCCCC[C@@H](C)Oc2ccc(NC(=O)CCC(F)(F)F)cc2C(=O)N([C@H](C)CO)C[C@@H]1C	0.8
C[C@H]1CN([C@@H](C)CO)C(=O)c2cc(NS(C)(=O)=O)ccc2O[C@H]1CN(C)Cc1ccc(C(=O)O)cc1	0.0
COc1ccc(CN(C)C[C@@H]2Oc3ccc(NC(=O)Nc4cccc5ccccc45)cc3CC(=O)N([C@H](C)CO)C[C@H]2C)cc1	0.6
C[C@@H]1CN([C@@H](C)CO)C(=O)c2cc(NC(=O)C3CCCCC3)ccc2O[C@H]1CN(C)Cc1ccccc1	0.5
[N-]=[N+]=NCc1ccccc1C[C@@]1(C(N)=O)N=C(c2ccc(OCCCO)cc2)O[C@@H]1c1ccccc1	-0.8
O=C(NCc1ccccc1)C1=C[C@H](c2csc3ccccc23)C[C@H](OCCCCO)O1	0.4
C=CCNC(=O)[C@H]1[C@@H]2C(=O)O[C@@H](c3ccccc3)[C@@H](c3ccccc3)N2[C@@H](c2ccc(O)cc2)[C@]12C(=O)Nc1ccc(C#CC3(O)CCCCCC3)cc12	-1.1
Cc1ccc(S(=O)(=O)Nc2ccc3c(c2)C(=O)N([C@@H](C)CO)C[C@@H](C)[C@@H](CN(C)Cc2ccccc2)O3)cc1	-0.5
C[C@@H]1CN([C@H](C)CO)C(=O)c2cc(N(C)C)ccc2O[C@H]1CN(C)Cc1ccc(-c2ccccc2)cc1	-1.7
Cc1noc(C)c1S(=O)(=O)Nc1ccc2c(c1)CC(=O)N([C@H](C)CO)C[C@H](C)[C@H](CN(C)C(=O)Nc1ccc(C(F)(F)F)cc1)O2	0.4
C[C@@H]1CN([C@H](C)CO)C(=O)c2cccc(NC(=O)Nc3ccc(C(F)(F)F)cc3)c2O[C@H]1CN(C)S(=O)(=O)c1ccc(Cl)cc1	1.0

Taken from the entries so far for reference:
SMILES	A1 apoptosis 2
O=C(NO)c1ccc(C(=O)N/N=C/c2cc(Cl)cc(Cl)c2O)cc1	-0.9
CCCN(C)C[C@H]1OCCCC[C@H](C)Oc2ccc(NC(=O)Nc3ccc(C(F)(F)F)cc3)cc2C(=O)N([C@@H](C)CO)C[C@H]1C	0.5
Cc1noc(C)c1S(=O)(=O)N(C)C[C@H]1OCCCC[C@@H](C)Oc2ccc(NC(=O)CCC(F)(F)F)cc2C(=O)N([C@H](C)CO)C[C@@H]1C	0.8
C[C@H]1CN([C@@H](C)CO)C(=O)c2cc(NS(C)(=O)=O)ccc2O[C@H]1CN(C)Cc1ccc(C(=O)O)cc1	0.0
COc1ccc(CN(C)C[C@@H]2Oc3ccc(NC(=O)Nc4cccc5ccccc45)cc3CC(=O)N([C@H](C)CO)C[C@H]2C)cc1	0.6
C[C@@H]1CN([C@@H](C)CO)C(=O)c2cc(NC(=O)C3CCCCC3)ccc2O[C@H]1CN(C)Cc1ccccc1	0.5
[N-]=[N+]=NCc1ccccc1C[C@@]1(C(N)=O)N=C(c2ccc(OCCCO)cc2)O[C@@H]1c1ccccc1	-0.8
O=C(NCc1ccccc1)C1=C[C@H](c2csc3ccccc23)C[C@H](OCCCCO)O1	0.4
C=CCNC(=O)[C@H]1[C@@H]2C(=O)O[C@@H](c3ccccc3)[C@@H](c3ccccc3)N2[C@@H](c2ccc(O)cc2)[C@]12C(=O)Nc1ccc(C#CC3(O)CCCCCC3)cc12	-1.1
Cc1ccc(S(=O)(=O)Nc2ccc3c(c2)C(=O)N([C@@H](C)CO)C[C@@H](C)[C@@H](CN(C)Cc2ccccc2)O3)cc1	-0.5

New compounds follow
SMILES	A1 apoptosis 2
C[C@@H]1CN([C@@H](C)CO)C(=O)Cc2cc(NC(=O)C3CCCCC3)ccc2O[C@H]1CN(C)Cc1ccccc1	-0.2
Cc1noc(C)c1NC(=O)N(C)C[C@@H]1Oc2c(NS(C)(=O)=O)cccc2C(=O)N([C@@H](C)CO)C[C@H]1C	1.0
C[C@H]1CN([C@@H](C)CO)C(=O)c2cc(NC(=O)C3CC3)ccc2O[C@@H]1CN(C)Cc1ccc(C(F)(F)F)cc1	0.0
C[C@@H]1CN([C@@H](C)CO)C(=O)CCCn2cc(nn2)CO[C@@H]1CN(C)S(=O)(=O)c1ccccc1	0.5
O=C(N/N=C/c1c(F)c(F)c(F)c(F)c1F)c1ccccc1O	-2.4
C[C@@H]1CN([C@@H](C)CO)C(=O)c2cccc(NC(=O)C3CCOCC3)c2O[C@H]1CN(C)C	0.7
C[C@@H]1CCCCO[C@@H](CN(C)Cc2ccc(C(F)(F)F)cc2)[C@H](C)CN([C@@H](C)CO)C(=O)c2cc(NS(=O)(=O)c3ccccc3)ccc2O1	-0.6
C[C@H](CO)N1C[C@H](C)[C@@H](CN(C)S(=O)(=O)c2cn(C)cn2)Oc2ccc(NS(=O)(=O)c3cn(C)cn3)cc2CC1=O	0.8
Nc1cccc(COc2ccc(/C=C/C(=O)NO)cc2)c1	-1.0
COc1ccc(S(=O)(=O)N(C)C[C@@H]2Oc3ccc(NC(=O)CCCN(C)C)cc3CC(=O)N([C@@H](C)CO)C[C@@H]2C)cc1	-0.3
C[C@@H]1CN([C@@H](C)CO)C(=O)Cc2cc(NC(=O)Nc3ccccc3)ccc2O[C@H]1CN(C)Cc1ccc(-c2ccccc2)cc1	0.0
CC(C)NC(=O)Nc1ccc2c(c1)C(=O)N([C@H](C)CO)C[C@H](C)[C@H](CN(C)C(=O)C1CCCCC1)OCCCC[C@@H](C)O2	0.4
C[C@H]1CN([C@@H](C)CO)C(=O)c2cccc(N(C)C)c2O[C@@H]1CN(C)Cc1ccncc1	-0.7
C[C@@H]1CN([C@@H](C)CO)C(=O)c2cc(NC(=O)CCCN(C)C)ccc2O[C@@H](C)CCCCO[C@H]1CN(C)C(=O)CCC(F)(F)F	-0.1
C[C@@H]1CN([C@@H](C)CO)C(=O)c2cc(NC(=O)CCC(F)(F)F)ccc2O[C@H]1CN(C)Cc1ccncc1	0.7
CC(C)NC(=O)N(C)C[C@@H]1Oc2ccc(NC(=O)Cn3cnnn3)cc2CC(=O)N([C@H](C)CO)C[C@H]1C	1.9
C[C@@H]1CCCCO[C@H](CN(C)Cc2ccccc2)[C@H](C)CN([C@H](C)CO)C(=O)c2cc(NC(=O)Cc3ccccc3)ccc2O1	1.2
COc1ccc(S(=O)(=O)N(C)C[C@H]2OCCCC[C@H](C)Oc3ccc(NS(=O)(=O)c4cccs4)cc3C(=O)N([C@@H](C)CO)C[C@H]2C)cc1	-1.7
COc1ccc(S(=O)(=O)N(C)C[C@@H]2Oc3ccc(NC(=O)c4ccncc4)cc3CC(=O)N([C@H](C)CO)C[C@@H]2C)cc1	-0.2
COc1ccc(NC(=O)Nc2ccc3c(c2)CC(=O)N([C@@H](C)CO)C[C@H](C)[C@@H](CN(C)S(=O)(=O)c2c(C)noc2C)O3)cc1	-0.5
COCCOC(=O)N1C(=O)[C@@]2(c3cc(C#CC4=CCCCC4)ccc31)[C@H](c1ccc(O)cc1)N1[C@H](c3ccccc3)[C@H](c3ccccc3)OC(=O)[C@H]1[C@@H]2C(N)=O	0.1
Cc1noc(C)c1NC(=O)N(C)C[C@H]1Oc2ccc(NC(=O)CCCCCC(=O)Nc3ccccc3N)cc2C(=O)N([C@H](C)CO)C[C@@H]1C	0.5
C[C@H](CO)N1C[C@H](C)[C@H](CN(C)CC2CCCCC2)Oc2ccc(NS(C)(=O)=O)cc2CC1=O	0.4
C[C@H](CO)N1C[C@H](C)[C@H](CN(C)S(C)(=O)=O)OCCCC[C@H](C)Oc2ccc(NC(=O)Nc3ccccc3)cc2C1=O	0.0
C[C@H]1CN([C@@H](C)CO)C(=O)c2cccc(NS(=O)(=O)c3ccc(F)cc3)c2O[C@H]1CN(C)Cc1ccccc1	-1.0
C[C@@H]1CN([C@@H](C)CO)C(=O)c2cccc(NC(=O)C3CCCCC3)c2O[C@H]1CN(C)C(=O)Nc1ccc2c(c1)OCO2	-0.5
Cc1ccccc1S(=O)(=O)N(C)C[C@@H]1OCc2cnnn2CCCC(=O)N([C@H](C)CO)C[C@H]1C	-0.4
CCCNC(=O)[C@@]1(C)c2ccccc2C(=O)N(Cc2ccc(OC(F)(F)F)cc2)[C@H]1c1ccc(CO)cc1	0.1
C[C@@H]1CN([C@@H](C)CO)C(=O)c2cc(NC(=O)Cc3ccccc3)ccc2O[C@H]1CN(C)C(=O)NC1CCCCC1	-0.2
COc1cccc(-c2cnc3c(c2)C(=O)N([C@H](C)CO)C[C@H](C)[C@H](CN(C)Cc2cccc(C(F)(F)F)c2)O3)c1	0.3
C[C@@H]1CN([C@H](C)CO)C(=O)c2cccc(N(C)C)c2O[C@@H]1CN(C)Cc1ccc(Oc2ccccc2)cc1	1.5
Cc1ccc(S(=O)(=O)N(C)C[C@H]2Oc3c(NC(=O)c4ccncc4)cccc3C(=O)N([C@@H](C)CO)C[C@@H]2C)cc1	0.0
COc1ccc(S(=O)(=O)Nc2ccc3c(c2)CC(=O)N([C@H](C)CO)C[C@H](C)[C@@H](CN(C)Cc2ccc4c(c2)OCO4)O3)cc1	-0.2
